# UCH37 DUB inh: inhibitors of human UCH37 deubiquitinase, primary screen, biochemical, Ub-AMC cleavage, fluorescence | Ubiquitin carboxyl-terminal hydrolase isozyme L5 (Homo sapiens), Q9Y5K5 | actives 0.33% (n = 330,000) | purified proteasome/UCH37 | inhibition, % (no concentration beside the values);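 active = mean of two replicates above 20%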;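 note: 0% = compound-free wells with enzyme and 100% = wells lacking proteasome; stock transfer was 100 nL into about 20 µL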
# Target sequence (Q9Y5K5 whole entry, looked up): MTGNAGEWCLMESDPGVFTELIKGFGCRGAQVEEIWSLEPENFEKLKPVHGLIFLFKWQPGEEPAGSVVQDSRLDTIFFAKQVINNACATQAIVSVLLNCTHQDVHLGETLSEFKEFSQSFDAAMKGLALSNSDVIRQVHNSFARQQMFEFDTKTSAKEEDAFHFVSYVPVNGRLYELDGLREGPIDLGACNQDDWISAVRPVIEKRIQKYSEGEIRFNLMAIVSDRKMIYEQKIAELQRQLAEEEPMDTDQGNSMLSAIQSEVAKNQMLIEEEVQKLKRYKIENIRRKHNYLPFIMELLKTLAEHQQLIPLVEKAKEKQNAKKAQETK
#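 System: Proteasome-associated human UCH37 deubiquitinase; Input: 0.15 nM proteasome in added enzyme buffer; Also added: Ub-AMC substrate from 1 µM stock; Incubation: 30 min compound-proteasome preincubation then 25 min substrate reaction, room temperature; Detection: fluorescence, ex 355 nm, em 460 nm; Read-out: % inhibition of Ub-AMC cleavage fluorescence; Benchmarks: no-proteasome and no-compound wells.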
# Beta apoptosis: inhibitors of cytokine-induced beta cell apoptosis, primary screen, luminescence; INS-1E cytokine-induced death, ATP luminescence, 48 h; percent of positive-control rescue, neutral wells zero; protection from apoptosis, % (test concentration not listed); actives 0.8% (n = 300,000); AID 435005, 2010;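 active = all replicates at 75% or more, or half of them and the mean; inconclusive = half reach 75% but not the mean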;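 note: 0% = cytokine-treated negative control wells and 100% = positive control rescue; higher means more ATP so stronger rescue from cytokine killing; wells of about 40 µL received 100 nL stock; the first replicate is given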
# Bfl-1 A1 inh: caspase 3/7 activation in MEF A1-2A-BIM cells, primary screen, A1 inhibitor project, cell-based, luminescence, HTS; Caspase-Glo 3/7 luminescence, 3 h; percent of clofoctol response, vehicle zero; actives 0.066% (n = 330,000); caspase activation, % (concentration not given with the values);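 active = over half of replicate activation scores above 10%, or exactly half above 10 with the replicate mean above 10; inconclusive = replicate mean below 10 yet half the replicates above 10; inactive = over half of replicates below 10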;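 note: wells of about 30 µL received 50 nL stock; many hits fall short of the cut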
# Ecoli rRNA inh: reduced GFP signal of wild-type E. coli, primary screen, bacterial rRNA inhibitor project, GFP/RFP fluorescence, OD600, single point; actives 1.6% (n = 350,000); E. coli WT GFP vs humanized-ribosome RFP mutants, 24 h; stronger effect = lower value; DMSO median 0, no signal -100; AID 720706, 2013; GFP signal change (wild-type ribosome), % (concentration not given with the values);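 active = significant combined selectivity score with lowered wild-type GFP, culture density cut under 30%, mutant RFP and density less affected; inactive = any of these conditions unmet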; note: one replicate is shown; some compounds called inactive have numbers as strong as hits
# E coli growth: E. coli growth inhibition, primary screen, OD600 | AID 1053175, 2014 | actives 0.21% (n = 330,000) | OD600 absorbance (test concentration not listed) | Escherichia coli growth, 23 h; stronger effect = lower value;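 active = OD600 absorbance below the run mean of sample wells minus 3.6 SD, in any replicate, cut at about 0.56 in these data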;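 note: stock transfer was 300 nL into about 60 µL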
# T cruzi repl: inhibitors of intracellular T. cruzi growth, primary screen, luminescence, NIH3T3 host cells; T. cruzi beta-gal in NIH3T3, 90 h; actives 1.4% (n = 300,000); inhibition, % (concentration not given with the values);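 active = mean inhibition across valid replicates above about 55%, limit read from the data; inconclusive = mean below that limit but half or more replicates reach it; inactive = mean below it, under half of replicates reach it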;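 note: signal also drops with host cell toxicity which is not excluded here; 0% = plate median of DMSO wells and 100% = zero luminescence signal; higher percent means less beta-gal luminescence so fewer parasites; stock transfer was 50 nL into about 50 µL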
# Ecoli rRNA inh OD600: second read-out of Ecoli rRNA inh, no call of its own (marks repeat the call); OD600 change, %; measured here: OD600 growth;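 optical density of the mix in the first replicate; 0 = DMSO median and -100 = no signal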
# Ecoli rRNA inh RFP: second read-out of Ecoli rRNA inh, no call of its own (marks repeat the call); RFP signal change, %; measured here: RFP humanized mutant strains;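 first replicate; 0 = DMSO median and -100 = no signal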
# The depositor's hits bear a star; u = inconclusive; x = not tested or not shown; & = joins results of further samples. These rows are one share of the data; count on the stated rates, not on these rows.
SMILES,UCH37 DUB inh,Beta apoptosis,Bfl-1 A1 inh,Ecoli rRNA inh,E coli growth,T cruzi repl,others
Cc1cccc(/C=N/n2c(C3CCCCC3)n[nH]c2=S)c1,x,x,1.0,0.5,x,-9.3,Ecoli rRNA inh OD600=5.8;Ecoli rRNA inh RFP=1.0
CCN1C(=O)/C(=C/c2ccc(C)s2)SC1=Nc1ccc(OC)cc1,4.3,8.7,x,x,x,8.2,
CCCCC(=O)Nc1nc2c(s1)COc1ccccc1-2,0.5,-2.6,x,x,x,14.2,
CCCOc1ccc(/C(O)=C2/C(=O)C(=O)N(CCN(C)C)C2c2ccco2)cc1 (centres undefined),2.6,-3.3,-0.1,x,x,x,
C#CCOCCOCCOCCNc1nc(N2CCN(C(=O)CCCCCCCCCCNC(=O)[C@H](CCCCN)n3cc(C)nn3)CC2)nc(N2CCN(C(=O)CCCCCCCCCCNC(=O)[C@H](CCCCN)n3cc(CCCC(=O)O)nn3)CC2)n1,2.0,-7.3,1.2,x,x,x,
CC(=O)C[C@H](O)CC(=O)[C@H]1OC(=O)CCCCCCCc2ccccc21,2.2,-4.9,0.1,x,x,x,
Cc1ccc(NC(=O)c2nc[nH]c2C(=O)N[C@H](C)c2ccccc2)cc1,-0.4,-2.6,-0.6,x,x,x,
CN(C)c1ccc(/C=C2\Oc3ccc(C#Cc4cccc(N)c4)cc3C2=O)cc1,-10.0,12.6,-0.6,x,x,x,
COc1cc(OC)cc(-c2cc3cc4c(cc3cn2)OCO4)c1,0.3,27.2,-15.2,x,x,x,
C[C@H](NC(=O)c1[nH]cnc1C(=O)Nc1ccc(Cl)cc1)c1ccccc1,3.1,0.2,-1.2,x,x,x,
NCCCC[C@H]1NC(=O)[C@H](CCC(=O)O)NC(=O)c2cc([N+](=O)[O-])cc(I)c2OCC[C@@H](C(N)=O)NC1=O,5.5,-11.4,0.2,x,x,x,
COC(=O)CN1C(=O)[C@H]2[C@@H](/C=C/c3ccccc3)N3C(=O)CN(Cc4ccccn4)C(=O)[C@@]3(Cc3ccccc3)[C@H]2C1=O,-1.4,-8.9,-0.6,x,x,x,
CCOC(=O)CN1C(=O)N[C@@H](c2ccccc2)C(C(=O)OC)=C1C,0.3,-1.4,0.1,x,x,x,
C/C=C(/C)C(=O)OC1CC(C)(C)C[C@H]2C3=CC[C@@H]4[C@@]5(C)CCC(O[C@@H]6O[C@@H](C(=O)O)[C@@H](O)C(O[C@@H]7OC[C@H](O)[C@@H](O)[C@@H]7O[C@@H]7OC(CO)C(O)[C@@H](O)[C@@H]7O)C6O[C@@H]6OC(CO)C(O)C(O)C6O)[C@@](C)(CO)[C@@H]5CC[C@]4(C)[C@]3(C)CC(O)[C@@]12CO (some centres undefined),0.6,43.7,0.6,x,x,x,
C[C@@H](NC(=O)c1nc[nH]c1C(=O)OCc1ccccc1)c1ccccc1,2.0,-0.2,-1.2,x,x,x,
C#CCOCCOCCOCCNc1nc(N2CCN(C(=O)CCCCCCCCCCNC(=O)Cn3cc(C[C@@H](C)O)nn3)CC2)nc(N2CCN(C(=O)CCCCCCCCCCNC(=O)[C@@H]([C@H](C)CC)n3cc(CCCCCN)nn3)CC2)n1,4.0,84.3*,u,x,x,x,
COc1cccc(CCN2C(=O)C(=O)N([C@@H](CNCc3ccccc3)Cc3ccccc3F)C[C@@H]2C(C)(C)C)c1,3.9,-4.7,0.1,x,x,x,
Cc1ccc(C2=CC(=O)C[C@H](c3ccc(Cl)cc3)C2)cc1,0.1,-2.9,-0.3,x,x,x,
C[C@@H]1O[C@@H](OC[C@H]2O[C@@H](Oc3cc(O)c4c(=O)cc(-c5ccc(O)c(O)c5)oc4c3)[C@H](O)[C@@H](O)[C@@H]2O)[C@H](O)[C@H](O)[C@H]1O,5.7,1.2,1.2,x,x,x,
C#CCOCCOCCOCCNc1nc(N2CCN(C(=O)CCCCCCCCCCNC(=O)Cn3cc(CCCCCN)nn3)CC2)nc(N2CCN(C(=O)CCCCCCCCCCNC(=O)[C@@H]([C@H](C)O)n3cc(C)nn3)CC2)n1,-0.4,-1.7,-0.1,x,x,x,
C=CC[C@@H](CC(=O)N[C@@H](CO)Cc1ccccc1)C(=O)NC[C@@H](OC(=O)[C@@H](CC=C)Cc1ccc(F)cc1)c1ccccc1,18.8,10.0,0.0,x,x,x,
COc1cc(CCCN[C@H](CN)Cc2ccccc2)cc(OC)c1OC,-2.0,1.0,-0.5,x,x,x,
O=C(N[C@H]1C/C=C\C[C@H](CC(=O)N(CCO)Cc2ccccc2)C(=O)NC[C@H](c2ccccc2)OC1=O)OCC1c2ccccc2-c2ccccc21,0.9,13.1,1.1,x,x,x,
COC(=O)[C@@]1(Cc2ccc(F)cc2)[C@@H]2[C@@H](CC(=O)[C@H]2CC(=O)C(=O)N(C)C)CN1C(=O)c1ccccc1,4.2,-5.4,-0.2,x,x,x,
C[C@@]12C(=O)Nc3ccc(Br)cc3C(=O)N1[C@H]1c3cc(Cl)ccc3OC[C@@H]1[C@@H]2c1ccccc1,-0.3,11.1,0.6,x,x,x,

# Of the compounds above, four have an aryl methoxy group:
SMILES,UCH37 DUB inh,Beta apoptosis,Bfl-1 A1 inh,Ecoli rRNA inh,E coli growth,T cruzi repl,others
CCN1C(=O)/C(=C/c2ccc(C)s2)SC1=Nc1ccc(OC)cc1,4.3,8.7,x,x,x,8.2,
COc1cc(OC)cc(-c2cc3cc4c(cc3cn2)OCO4)c1,0.3,27.2,-15.2,x,x,x,
COc1cccc(CCN2C(=O)C(=O)N([C@@H](CNCc3ccccc3)Cc3ccccc3F)C[C@@H]2C(C)(C)C)c1,3.9,-4.7,0.1,x,x,x,
COc1cc(CCCN[C@H](CN)Cc2ccccc2)cc(OC)c1OC,-2.0,1.0,-0.5,x,x,x,

# The listing picks up; the six compounds before the break are reprinted first.
SMILES,UCH37 DUB inh,Beta apoptosis,Bfl-1 A1 inh,Ecoli rRNA inh,E coli growth,T cruzi repl,others
C#CCOCCOCCOCCNc1nc(N2CCN(C(=O)CCCCCCCCCCNC(=O)Cn3cc(CCCCCN)nn3)CC2)nc(N2CCN(C(=O)CCCCCCCCCCNC(=O)[C@@H]([C@H](C)O)n3cc(C)nn3)CC2)n1,-0.4,-1.7,-0.1,x,x,x,
C=CC[C@@H](CC(=O)N[C@@H](CO)Cc1ccccc1)C(=O)NC[C@@H](OC(=O)[C@@H](CC=C)Cc1ccc(F)cc1)c1ccccc1,18.8,10.0,0.0,x,x,x,
COc1cc(CCCN[C@H](CN)Cc2ccccc2)cc(OC)c1OC,-2.0,1.0,-0.5,x,x,x,
O=C(N[C@H]1C/C=C\C[C@H](CC(=O)N(CCO)Cc2ccccc2)C(=O)NC[C@H](c2ccccc2)OC1=O)OCC1c2ccccc2-c2ccccc21,0.9,13.1,1.1,x,x,x,
COC(=O)[C@@]1(Cc2ccc(F)cc2)[C@@H]2[C@@H](CC(=O)[C@H]2CC(=O)C(=O)N(C)C)CN1C(=O)c1ccccc1,4.2,-5.4,-0.2,x,x,x,
C[C@@]12C(=O)Nc3ccc(Br)cc3C(=O)N1[C@H]1c3cc(Cl)ccc3OC[C@@H]1[C@@H]2c1ccccc1,-0.3,11.1,0.6,x,x,x,
CC(=O)C1=C(C)N(CC2CC2)C(=O)N[C@H]1c1cccs1,1.1,-0.8,2.6,x,x,x,
COC(=O)c1ccc2c(c1)C(C)(C)C(/C=C/c1ccc(OC)c(OC)c1OC)=[N+]2C,-164.4,107.3*,0.5,x,x,x,
C[C@@H](CN1CCC[C@H]1CN1C(N)=NC[C@@H]1Cc1ccccc1)N1C[C@@H](Cc2ccccc2)N(CCc2ccc(Cl)c(Cl)c2)C1=N,1.0,-10.9,0.3,x,x,x,
CC[C@H](C)[C@@H](NC(=O)O[C@@H]1C(=O)c2cc(OC)ccc2O[C@H]1c1ccc(OC)c(Br)c1)C(=O)OC,-8.7,-1.1,1.7,x,x,x,
CC(C)(C)OC(=O)CNC(=O)c1[nH]cnc1C(=O)N[C@@H](CCCCN)C(=O)OC(C)(C)C,3.8,-13.7,-0.5,x,x,x,
CC[N+](CC)(CC)CCOc1cccc(OCC[N+](CC)(CC)CC)c1OCC[N+](CC)(CC)CC,-1.1,-6.7,0.1,x,x,x,
O=C(N[C@@H]1C/C=C\C[C@@H](CC(=O)N(CCO)Cc2ccccc2)C(=O)NCCOC1=O)OCC1c2ccccc2-c2ccccc21,1.1,18.4,-0.2,x,x,x,
CC(C)c1cccc(-c2ccc3c(c2)S(=O)(=O)c2cccc(C(=O)NCc4ccccc4Cl)c2C3=O)c1,2.5,-3.8,12.1*,x,x,x,
COc1ccc(CC(=O)ON=C(N)Cc2cccc3ccccc23)cc1,x,x,x,x,0.724,x,
c1c(CC2CCCC2)nnn1CC1CCC(C2CCC(Cn3cc(CC4CCCC4)nn3)O2)O1 (centres undefined),x,x,x,x,0.705,x,
COC(=O)[C@@]1(Cc2ccc(F)cc2)C2c3cc(C(=O)N4CCCC4)n(CCc4ccccn4)c3CC2CN1C(=O)c1ccccc1 (some centres undefined),x,x,x,x,0.712,x,
CC(=O)C1=C(C)N(CC2CC2)C(=O)NC1c1ccc(Br)cc1 (centres undefined),x,x,x,x,0.71,x,
COC(=O)C(CCSC)NC(=O)Cn1ccc(NC(=O)OCc2ccccc2)nc1=O (centres undefined),x,x,x,x,0.657,x,
COCCNC(=O)[C@@]1(C)C=CC(Cc2ccccc2)N1C(=O)c1ccccc1 (some centres undefined),x,x,x,x,0.7,x,
NCCCCC1NC(=O)c2cc([N+](=O)[O-])cc(I)c2SCC(C(N)=O)NC(=O)C(Cc2ccc(O)cc2)NC1=O (centres undefined),x,x,x,x,0.728,x,
CN1C(=O)C2C(C3CC3)N3C(=O)CN(Cc4ccccc4)C(=O)[C@@]3(C)C2C1=O (some centres undefined),x,x,x,x,0.672,x,
O=C1CCCCC1=CNCc1ccccc1,x,x,x,x,0.723,x,
COc1cc(C=C(C#N)C(=O)c2ccc(O)c(O)c2)cc(I)c1O,x,x,x,x,0.655,x,
CN1CCN(C(=O)C2=CC(c3csc4ccccc34)CC(OCCCCO)O2)CC1 (centres undefined),x,x,x,x,0.706&0.698,x,
C[N+]([O-])=CC1C(=O)CCCC1=O,x,x,x,x,0.694,x,
CNCC(CC1CCCCC1)NCC(Cc1ccccc1)NCCC12CC3CC(CC(C3)C1)C2 (centres undefined),x,x,x,x,0.06*,x,
Cc1ccc(S(=O)(=O)N2C(c3ccc(C(C)C)cc3)CC=C(C(=O)O)C2c2cccc(Cl)c2)cc1 (centres undefined),x,x,x,x,0.659,x,
CCOC(=O)c1ccc(NC(=O)c2nc[nH]c2C(=O)NC(CC(C)C)C(=O)OC(C)(C)C)cc1 (centres undefined),x,x,x,x,0.724,x,
Cc1cc2c(nc1C)CCCN2CC(C)ON=C1C2CCn3c(=O)n(-c4ccccc4)c(=O)n3C2C(O)C2OC12 (centres undefined),x,x,x,x,0.685,x,

# Bioassay records from PubChem BioAssay.
